KCNQ2 enhance: KCNQ2 (rat) channel potentiation. O88943. CHO-K1 KCNQ2, FluxOR thallium flux fluorescence; active compounds read high. B-score at 10 µM. 0.54% of 310,000 active. AID 2239;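 active = fluorescence ratio B-score at least 3 SD of library B-scores, with initial fluorescence B-score within 3 SD, cut at about 5.3 in these data; same plate scores as AID 2156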;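 note: B-score of peak minus minimum over baseline fluorescence ratio after K+ and Tl+ stimulus; positive B-score means potentiation of KCNQ2 with more thallium influx and brighter signal; only the inactives scoring about 0 or higher are listed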
Target sequence (O88943 whole entry, looked up): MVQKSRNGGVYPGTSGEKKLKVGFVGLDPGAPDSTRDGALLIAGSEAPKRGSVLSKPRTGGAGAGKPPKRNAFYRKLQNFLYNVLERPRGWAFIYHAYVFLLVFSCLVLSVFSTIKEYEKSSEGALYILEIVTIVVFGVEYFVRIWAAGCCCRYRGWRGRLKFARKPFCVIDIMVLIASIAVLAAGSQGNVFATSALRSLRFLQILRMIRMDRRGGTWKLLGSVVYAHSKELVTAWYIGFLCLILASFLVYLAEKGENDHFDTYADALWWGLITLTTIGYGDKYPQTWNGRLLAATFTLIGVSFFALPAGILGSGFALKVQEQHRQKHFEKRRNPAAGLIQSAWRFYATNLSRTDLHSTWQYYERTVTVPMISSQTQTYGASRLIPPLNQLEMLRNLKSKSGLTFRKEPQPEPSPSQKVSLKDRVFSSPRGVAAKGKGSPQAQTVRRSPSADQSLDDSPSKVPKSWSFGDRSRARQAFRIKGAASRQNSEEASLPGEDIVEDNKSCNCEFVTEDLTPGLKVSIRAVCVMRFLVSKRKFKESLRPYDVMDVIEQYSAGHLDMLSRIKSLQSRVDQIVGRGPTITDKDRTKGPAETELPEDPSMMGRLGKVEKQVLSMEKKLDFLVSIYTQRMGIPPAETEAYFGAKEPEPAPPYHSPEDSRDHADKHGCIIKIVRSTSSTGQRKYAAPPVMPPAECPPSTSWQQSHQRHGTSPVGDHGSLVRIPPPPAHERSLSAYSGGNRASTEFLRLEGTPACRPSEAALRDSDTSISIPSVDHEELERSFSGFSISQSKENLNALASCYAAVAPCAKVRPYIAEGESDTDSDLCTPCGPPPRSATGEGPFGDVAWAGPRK
KCNQ2 enhance baseline: recorded beside KCNQ2 enhance, whose call it bears; B-score; compound at 10 µM; measured here: initial fluorescence intensity artifact check;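 brightness before thallium and not channel activity; 0 = typical well and far values either way flag optical interference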
* = called active by the depositor. Some of the compounds tested, so the mix of outcomes need not match the whole.

SMILES	KCNQ2 enhance	KCNQ2 enhance baseline
COc1c(OC)c2[nH]c(=O)cc3c4ccccc4n(c1=O)c23	0.34	-0.88
COc1ccc(OCCCN(C)Cc2ccccc2)cc1	0.05	0.25
C/C(=N/NC(=O)CSc1nc2ccccc2n1C)c1ccncc1	0.67	-0.74
C=CCn1c(SCC(N)=O)nc2scc(-c3ccc(C)o3)c2c1=O	5.28*	-0.15*
COc1cccc(C(=O)/C=C/Nc2ccc(S(=O)(=O)Nc3cccc(C(C)=O)c3)cc2)c1	0.26	1.75
CCOC(=O)C1CCCN(Cc2nc(N)nc(Nc3ccc(Cl)cc3)n2)C1 (stereo not given)	2.14	-0.07
CCOc1c2ccc(C(=O)NCC34CC5CC(CC(C5)C3)C4)cc2nn1CC	0.38	-0.38
O=C(O)c1nn(-c2ccccc2C(F)(F)F)cc1O	0.14	-1.92
CSc1ccc(S(=O)(=O)NCc2ccc(C)cc2)cc1	0.1	-0.2
COc1ccc(CN(CCC#N)CCC2(c3ccccc3)CC(C)N(C)CC2C)cc1OC (stereo not given)	0.33	1.34
COC(=O)c1cc(NC(=O)/C=C/c2ccc3c(c2)OCO3)cc(C(=O)OC)c1	0.58	-0.8
C/C(=N\NC(=O)C(=O)Nc1c(C)n(C)n(-c2ccccc2)c1=O)c1ccc(Cl)s1	0.12	1.33
CCOc1ccccc1N(CC(=O)N1CCCC1)S(C)(=O)=O	0.18	1.01
COc1ccc(N2CCC(CNC(=O)Nc3ccccc3)C2)cc1 (stereo not given)	1.05	-0.15
Cc1cccc(C(=O)OCC(=O)NN2C(=O)NC3(CCC(C)CC3)C2=O)c1O (stereo not given)	1.3	-0.04
CCc1ccc(/C=C2/Sc3ccccc3N(CC(=O)NCC3CCCO3)C2=O)cc1 (stereo not given)	0.11	0.48
Cc1ccc(-n2[nH]c(C)c(C=NCc3ccncc3)c2=O)cc1	0.47	-0.02
O=C(Nc1cccc(C(F)(F)F)c1)c1cccnn1	1.32	-2.64
Cc1ccc(SCc2cc(=O)n3[nH]cnc3n2)cc1	0.39	-0.6
CCOc1ccc(NS(=O)(=O)c2ccc3[nH]c(=O)cc(C(=O)O)c3c2)cc1	0.68	0.99
Cn1c(-c2ccccc2)c(C(=O)CC#N)c2ccccc21	0.25	1.04
CCN(CC)c1ccc(NC(=O)CSc2nc3nc(C)cc(C)c3c(=O)[nH]2)cc1	2.02	1.16
NC(=O)CSc1nc2sc(-c3ccccc3)cc2c(=O)n1N	0.11	0.98
O=C(NCCN1CCCC1=O)C1CCC(=O)N(CCc2ccc(Cl)cc2)C1 (stereo not given)	1.01	1.37
COC(=O)CN1C(=O)COc2ccc(S(=O)(=O)N3CCCC3)cc21	0.28	0.01

Next section:
SMILES	KCNQ2 enhance	KCNQ2 enhance baseline
O=C(CSc1nnc(Cc2cc(=O)[nH]c(=O)[nH]2)n1-c1ccc(F)cc1)N1CCCCC1	0.05	0.72
Cc1nc(N2CCOCC2)c2c(C)c(C(=O)Nc3ccccc3Cl)sc2n1	1.29	-0.58
CCCOC(=O)C1[C@H]2C(=O)N(CCCOC)C[C@]23C=C[C@H]1O3 (stereo not given in full)	0.82	1.03
CCn1nc(C)c(NC(=O)/C=C/c2cnn(C)c2)c1C	0.49	-0.53
O=c1c2sc(-c3ccccc3)cc2nc2n1CCCCC2	2.06	-2.69
Cc1ccc(S(=O)(=O)CCC(=O)OCC(=O)NC(N)=O)cc1	0.19	0.45
CC(C)(C)OC(=O)N1CCC(CNC(=O)c2ccc(F)cc2)CC1	1.72	-0.05
C1=CN2CCC1C(c1ccccc1)C2 (stereo not given)	0.08	-0.87
CCOc1ccccc1NC(=O)CN1C(=O)C(=O)N(Cc2ccco2)C1=O	0.96	-1.1
COC(=O)c1nc(-n2nc(C)cc2C)ccc1Cl	1.23	-1.1
Cc1cc(NC(=O)CSCc2nc(-c3cccc(F)c3)oc2C)no1	0.52	0.1
O=C(Cn1cc(C(=O)C2CC2)c2ccccc21)NC1CCCC1	0.17	1.56
COc1cccc(CC2(CO)CCCN(S(=O)(=O)N(C)C)C2)c1 (stereo not given)	0.84	-0.61
COc1ccc(-c2[nH]c3ccccc3c2SCCN)cc1	0.56	1.85
CN(C)CCCNC(=O)c1cc(C(=O)c2ccc(F)cc2)c[nH]1	0.06	2.03
CCCCOc1ccc(C(=O)Nc2cccc(C)n2)cc1	0.15	-0.24
CCCN(CCC)S(=O)(=O)c1ccc(C(=O)Nc2nnc(CSC)o2)cc1	1.32	0
CCN(c1ccccc1)S(=O)(=O)c1ccc(C(=O)Nc2nnc(-c3ccco3)o2)cc1	1.56	1.73
COc1ccc(-c2csc(NC(=S)NC(=O)/C=C/c3ccccc3)n2)cc1Br	0.09	1.73
CC1(C)CC(=O)c2cc(C(=O)N3CCN(CCO)CC3)c(=O)n(-c3ccc(Cl)cc3)c2C1	0.08	0.22
COc1cc(C2NC(=O)NC(C)=C2C(=O)OCC2CCCO2)cc(OC)c1OC (stereo not given)	1.12	-0.06
CN1c2ccsc2C(O)=C(C(=S)Nc2ccccc2)S1(=O)=O	0.35	1.02
CCC(=O)N1CCN=C1SCc1ccccc1	1.33	0.02
CC(=O)Nc1c2c(nn1-c1ccccc1C)CS(=O)C2 (stereo not given)	0.86	1.99
O=C(NCC1CCCO1)c1cccc(N2C(=O)C3C4C=CC(C4)C3C2=O)c1 (stereo not given)	1.18	1.45

Additional compounds follow:
SMILES	KCNQ2 enhance	KCNQ2 enhance baseline
COCCNC(=O)c1cc2c(=O)[nH]c3ccccc3c2s1	1.03	-0.16
O=C(COC(=O)/C=C/c1nc2ccccc2s1)Nc1ccccc1Oc1ccccc1	2.18	-2.15
Cc1ccc(C(=O)CC(=O)c2ccc(C)cc2O)cc1	1.74	0.17
Cc1cc(C)cc(OC(=O)N2CCOCC2)c1	0.7	0.09
CCC(=O)c1ccccc1OCCSc1nc(C)cc(=O)[nH]1	2.16	0.09
CCc1ccc(NC(=O)CC2C(=O)N(c3ccc(C)cc3)C(=O)N2CCc2ccncc2)cc1 (stereo not given)	2.23	-0.94
CN(C)/C=C(\C#N)C(=O)N/N=C/c1ccccc1	0.27	1.5
O=C(NC(=S)NNS(=O)(=O)c1ccccc1)c1ccc([N+](=O)[O-])cc1	3.59	0.12
O=C(Cc1ccccc1)Nc1ncccn1	1.63	-0.75
Cc1ccc(/C=C2/SC(=S)N(CCCC(=O)Nc3ccc(O)cc3)C2=O)cc1	0.57	-0.36
Cc1cccc(-c2cccc(NC(=O)C3CCCN(C(=O)c4ocnc4C)C3)c2)c1 (stereo not given)	0.58	-0.79
Cn1c2c(c(=O)n(C)c1=O)C(c1ccc(Br)cc1)C(C#N)=C(N)N2 (stereo not given)	0.02	0.4
O=C(CCN1C(=O)C2C3C=CC(C3)C2C1=O)Nc1nccs1 (stereo not given)	0.27	0.02
CC(=O)Nc1ccc(NC(=O)CSc2nnc(NC(=O)C3CC(=O)N(c4ccccc4)C3)s2)cc1 (stereo not given)	0.95	1.54
CCN1C(=O)Cc2cc(S(=O)(=O)N3CCOCC3)ccc21	0.79	-0.47
CCC(=O)N1CCN(c2ccc(NC(=O)c3cccs3)cc2)CC1	0.72	-0.67
Cc1ccc(OCC(=O)NNC(=S)NC(=O)c2cccs2)c(C)c1	0.61	-1.4
O=c1c2cc(Cl)ccc2nc(-c2ccc([N+](=O)[O-])cc2)n1O	9.67*	0.94*
CCN(c1cccc(C)c1)S(=O)(=O)c1c(C)[nH]c(=O)[nH]c1=O	0.82	-0.35
CN(C)CCNC(=O)NC(=O)c1ccc(Cl)cc1	0.01	-0.08
O=C(CCC(=O)NC1CC1)Nc1nnc(C2CCCCC2)s1	0.41	0.08
O=C(Nc1cccnc1)c1ccc(Cl)c(S(=O)(=O)N2CCc3ccccc32)c1	0.31	-0.99
CC(C)COc1ccc(/C=C2/Sc3ccccc3C2=O)cc1	0.01	0.11
Cc1ccc(S(=O)(=O)Cn2nnnc2C(C(C)C)N2CCC(O)CC2)cc1 (stereo not given)	0.49	0.08
CCOc1ccc(OCCSc2nc3ccccc3c(=O)[nH]2)cc1	0.09	-0.63

Additional compounds.
SMILES	KCNQ2 enhance	KCNQ2 enhance baseline
COc1cccc(Nc2ncnc3c2cnn3-c2cccc(C)c2)c1	0.06	-1.03
Clc1ccc(Oc2ncnc3oc(-c4ccccc4)cc23)cc1	0.39	0.13
CCCCCCCC(=O)OC(CN1CCCCC1)CN1CCCC1=O (stereo not given)	0.71	-1.07
CC(=O)c1cccc(NC(=O)N(c2ccccc2)c2ccccc2)c1	0.12	-0.08
Cc1ccc(NC(=S)NCc2ccc(F)cc2)cc1	3.95	1.7
Cn1c(=O)n(C)c2cc(NC(=O)c3cc4ccccc4o3)ccc21	0.47	-0.18
CC(C)c1ccc(-n2cnn(-c3ncccc3[N+](=O)[O-])c2=O)cc1	1.91	-1.41
CC1=NN(c2ccccc2)C(=O)C1N=Nc1ccccc1 (stereo not given)	0.46	-0.67
O=C(Nc1ccccc1)c1nn(-c2cccc(C(F)(F)F)c2)ccc1=O	0.29	3.07
O=C(NCc1ccc(F)cc1)c1ccc(Cl)c(NC2=NC3CS(=O)(=O)CC3S2)c1 (stereo not given)	1.49	2.32
C=CCNC(=O)c1cc(-c2cccnc2)nc2ccccc12	1.72	-0.09
Cc1nnc(NC(=O)c2cccc(S(=O)(=O)N3CC(c4ccccc4)CC3=O)c2)s1 (stereo not given)	0.37	-1.64
CC(C)(C)NC(=O)c1ccccc1-c1nc2ccccc2s1	0.62	0.52
O=C1NCCCc2c1no[n+]2[O-]	0.61	-1.11
COc1ccc(N(CC(=O)N/N=C(\C)c2ccc(C)cc2)S(=O)(=O)c2ccccc2)cc1	0.29	-0.07
COc1ccc(OC)c(-n2c(=S)[nH]c3cc(C(=O)N4CCC(C(N)=O)CC4)ccc3c2=O)c1	1.76	0.12
Cc1ccc(C)c(OCC(O)CNC2CCCC2)c1 (stereo not given)	0.54	-1.15
Cc1nn(-c2ccccc2)cc1/C=N/NC(N)=S	1.57	0.08
Cc1cccnc1NC(=O)CNC(=O)c1cccs1	1.9	-0.49
Cc1nc([N+](=O)[O-])c(Sc2nc3ccccc3[nH]2)n1Cc1ccccc1	0.04	0.34
COC(=O)CSc1cnc2ccccc2n1	0.12	-0.19
COc1ccc(CNC(=O)CN2C(=O)CCSc3ccc(S(=O)(=O)N4CCCC4)cc32)cc1	0.23	-1.28
O=C1C2C3C=CC(C3)C2C(=O)N1CN(Cc1ccccc1)CN1C(=O)C2C3C=CC(C3)C2C1=O (stereo not given)	0.99	-0.02
CC(=O)Nc1ccccc1C(=O)C(=O)Nc1ccc(C)c(F)c1	2.35	-0.12
O=C(CO/N=C/c1ccc(OC(F)F)cc1)NC1CCCC1	0.97	-0.07

The list continues:
SMILES	KCNQ2 enhance	KCNQ2 enhance baseline
C=CCc1cc(C=O)cc(OCC)c1O	0.07	0.08
CC1=CC=CN2CC(O)CN=C12 (stereo not given)	1.01	-3.06
NC(=O)c1cc(C(=O)c2ccccc2Cl)c[nH]1	0.4	-0.36
Cc1cccc(OC(C)C(=O)NCc2ccc(S(N)(=O)=O)cc2)c1 (stereo not given)	0.85	0.34
O=C(NCc1ccccn1)C(=O)Nc1nc(C23CC4CC(CC(C4)C2)C3)cs1	0.05	-0.47
COc1ccc(S(=O)(=O)Nc2noc3ccccc23)cc1	0.99	0.08
COc1ccc(NC(=O)CCC(=O)N2CCN(S(=O)(=O)c3ccc(C)cc3)CC2)c(OC)c1	0.71	-0.86
CC(C)CCNc1nc(N2CCCC2)c2c(c1C#N)CCN(C)C2	1.95	0.4
COc1cccc(/C=N/NC(=O)CCNc2n[nH]c(=O)[nH]c2=O)c1OC	0.94	1.19
CCCCCCCC(=O)NNC(=O)CCC(=O)O	1.43	-0.57
CS(=O)(=O)N(CC(=O)N1CCCC1)c1ccc(Cl)c(Cl)c1	1.13	-2.54
CC(NC(=O)c1ccccc1F)c1nnc(SCC(=O)Nc2nccs2)n1C (stereo not given)	0.13	-0.97
CCNC(=S)N1CCc2ccccc2C1	0.35	0.24
O=C(NCc1nnc(SCC(=O)N2CCCCC2)o1)c1c(F)cccc1F	0.04	-0.65
CCOC(=O)Cn1c(=O)oc2cc(S(=O)(=O)Nc3cccc(C)c3)ccc21	1.31	-0.63
COc1cccc(/C=N/NC(=O)C(=O)NCc2cccnc2)c1O	2.95	-0.97
CC(=O)c1ccc(N2CCCC2)c(F)c1	0.34	0.1
COc1cc(NC(=O)c2cc(OC)c(OC)c(OC)c2)ccc1NC(=O)c1cccs1	2.05	0.09
CC1(C)CC(=O)C2=C(C1)OC(N)=C(C#N)C2c1ccsc1 (stereo not given)	0.21	1.51
CCCCC(=O)N1CCN(c2nc3ccc(F)cc3s2)CC1	1.67	-0.31

Screening results from PubChem BioAssay.
